Screening results deposited in PubChem by Johns Hopkins Ion Channel Center.
KCNQ2 pot = enhances the rat KCNQ2 potassium channel; CHO-K1 KCNQ2, FluxOR thallium flux fluorescence; active compounds read high; actives 0.54% (n = 310,000); B-score at 10 µM; AID 2239;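 active means fluorescence ratio B-score at least 3 SD of library B-scores, with initial fluorescence B-score within 3 SD, cut at about 5.3 in these data; same plate scores as AID 2156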;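 further: B-score of peak minus minimum over baseline fluorescence ratio after K+ and Tl+ stimulus; positive B-score means potentiation of KCNQ2 with more thallium influx and brighter signal; only the inactives scoring about 0 or higher are listed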
Target sequence (O88943 whole entry, looked up): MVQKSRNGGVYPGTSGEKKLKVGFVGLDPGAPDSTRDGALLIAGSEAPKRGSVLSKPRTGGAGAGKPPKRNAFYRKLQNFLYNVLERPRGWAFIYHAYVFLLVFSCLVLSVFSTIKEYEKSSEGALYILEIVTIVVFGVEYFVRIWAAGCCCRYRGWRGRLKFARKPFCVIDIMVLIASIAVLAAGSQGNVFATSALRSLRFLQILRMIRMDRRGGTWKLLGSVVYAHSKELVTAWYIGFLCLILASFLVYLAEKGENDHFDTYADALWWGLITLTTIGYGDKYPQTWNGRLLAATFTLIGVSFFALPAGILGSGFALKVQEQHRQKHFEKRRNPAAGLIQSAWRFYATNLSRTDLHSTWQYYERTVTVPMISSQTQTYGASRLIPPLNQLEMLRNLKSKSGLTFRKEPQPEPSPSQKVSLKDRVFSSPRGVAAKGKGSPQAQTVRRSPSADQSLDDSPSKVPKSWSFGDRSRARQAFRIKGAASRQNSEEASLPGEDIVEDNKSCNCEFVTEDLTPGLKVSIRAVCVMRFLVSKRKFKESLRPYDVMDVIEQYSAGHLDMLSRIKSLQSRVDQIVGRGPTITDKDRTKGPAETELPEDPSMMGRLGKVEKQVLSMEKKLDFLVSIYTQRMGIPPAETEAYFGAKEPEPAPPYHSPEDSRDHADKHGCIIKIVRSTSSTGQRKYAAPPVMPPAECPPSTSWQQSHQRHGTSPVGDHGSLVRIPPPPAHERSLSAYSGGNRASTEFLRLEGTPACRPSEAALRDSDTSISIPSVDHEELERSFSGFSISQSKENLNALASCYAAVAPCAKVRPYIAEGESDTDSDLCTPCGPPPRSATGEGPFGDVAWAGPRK
KCNQ2 pot baseline = also measured in KCNQ2 pot; calls as there; B-score; compound at 10 µM; measured here: initial fluorescence intensity artifact check;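 brightness before thallium and not channel activity; 0 = typical well and far values either way flag optical interference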
* marks the source's active call; other numbers are inactive results.

1: CNCC(O)c1cccc(OC(=O)c2ccccc2C)c1 (stereo not given)
2: CCC12CN3CCN(CC(C3)/C1=N/NC(N)=O)C2
3: C=CCn1c(O)c(C(C)=NCCCN(C)C)c(=O)[nH]c1=O
4: CCN(CC)c1ccc([N+](=O)[O-])c2cccnc12
5: CN(C)C(=O)Oc1ccc2c(c1)O/C(=C\c1cccc(Cl)c1)C2=O
6: Cn1c(O)c(/C=N/c2ccccn2)c(=O)n(C)c1=O
7: COC(=O)c1ccccc1OP(=O)(c1cccc([N+](=O)[O-])c1)c1cccc([N+](=O)[O-])c1
8: OC1(c2cccnc2)CC2CCC(C1)N2Cc1nnnn1Cc1ccccc1 (stereo not given)
Assay by compound	1	2	3	4	5	6	7	8
KCNQ2 pot	0.15	0.79	0.2	0.59	0.05	0.14	0.89	0.49
KCNQ2 pot baseline	1.2	0.14	0.13	-0.13	-0.23	0.78	1.6	0.95

9: CCOc1ccc(NC(=O)C2C3c4ccccc4C(c4ccccc43)C2C(=O)O)cc1 (stereo not given)
10: COC(=O)C(O)(c1cn(C)c2ccccc12)C(F)(F)F (stereo not given)
11: Cc1cccc2c1=NC(=O)/C(=C/c1c(O)[nH]c(=O)[nH]c1=O)C=2
12: COc1ccccc1C(=O)Nc1ccc2c(c1)CC1(C(=O)N(C)C(=O)N(C)C1=O)C1CCCN21 (stereo not given)
13: COc1ccc(OC)c(NP(=O)(Oc2ccccc2)Oc2ccccc2)c1
14: COc1ccc(CCNCc2ccncc2)cc1OC
15: Cc1cc(OCC(=O)OC(C)(C)C)c2c3c(c(=O)oc2c1)CCC3
16: O=C(O)[C@H]1C[C@@H]1[C@H](NP(=O)(c1ccccc1)c1ccccc1)c1ccccc1
Assay by compound	9	10	11	12	13	14	15	16
KCNQ2 pot	0.97	0.02	0.63	0.4	0.02	1.4	0.29	0.62
KCNQ2 pot baseline	-1	0.01	-0.52	-1.9	1.8	0.51	-0.57	0.86

17: CN1CCN(Cc2nnc3n2-c2ccc(Cl)cc2C(c2ccccc2)=NC3)CC1
18: CC1CN(C)C(C)(C)CC1(O)c1ccccc1 (stereo not given)
19: CCC(C)n1c(O)c(/C=N/NC(=O)c2ccncc2)c(=O)[nH]c1=S (stereo not given)
20: N#Cc1cc2c(nc1SCC(=O)Nc1cc(Cl)ccc1Cl)C1CCN2CC1
21: OCc1cnc[nH]1
22: CC(N)Cc1c[nH]c2cc3c(cc12)OCCO3 (stereo not given)
23: CC(C)Oc1ccc(C2C(C#N)=C(N)Oc3c2c(=O)oc2ccccc32)cc1 (stereo not given)
24: Cc1ccc(-n2cc(CNC(C)Cc3cnccn3)c(-c3cccc(C)c3)n2)cc1 (stereo not given)
Assay by compound	17	18	19	20	21	22	23	24
KCNQ2 pot	0.51	0.47	0.29	0.09	0.11	1.3	0.1	0.08
KCNQ2 pot baseline	-0.36	0.06	0.08	0.92	2.9	0.03	-0.2	-1.8

25: CC(C)C1(C)N=C(c2nc3ccccc3cc2C(=O)O)NC1=O (stereo not given)
26: N#CCCn1cc(C(=O)Nc2ccccc2Br)c(-c2ccc3c(c2)OCCO3)n1
27: CN1CCN(c2ccc([N+](=O)[O-])c3cccnc23)CC1
28: N#CC1=C(N)Oc2c(c(=O)oc3ccccc23)C1c1ccccc1OC(=O)c1cccs1 (stereo not given)
29: Fc1cccc(C2NCCc3[nH]cnc32)c1 (stereo not given)
30: CCCCn1c(C)c(C(=O)O)c2cc(OC)ccc21
31: CC(=O)c1c(O)n(C)c(=S)n(-c2ccccc2)c1=O
32: CN1CCN(C(=O)O[C@H]2c3nccnc3C(=O)N2c2ccc(Cl)cn2)CC1
Assay by compound	25	26	27	28	29	30	31	32
KCNQ2 pot	0.45	1	1.3	1.1	0.31	0.59	1.7	1.9
KCNQ2 pot baseline	1.6	-1.6	-0.61	0.25	-2.1	-0.07	0	-0.06

Rewritten with two lines to a compound: entries from further up
Each structure is followed by: KCNQ2 pot, KCNQ2 pot baseline
26. N#CCCn1cc(C(=O)Nc2ccccc2Br)c(-c2ccc3c(c2)OCCO3)n1
  1, -1.6
28. N#CC1=C(N)Oc2c(c(=O)oc3ccccc23)C1c1ccccc1OC(=O)c1cccs1 (stereo not given)
  1.1, 0.25

New compounds follow
33: O=C(Cn1ncc2c3ccccc3n(Cc3ccc(F)cc3)c2c1=O)N1CCC2(CC1)OCCO2
34: OCC[n+]1c2ccccc2nc2ccc(N3CCOCC3)cc21
35: Cc1nc2ccccc2c(=O)n1-c1ccncc1
36: CCCCc1nc2ccccc2c(=O)n1-c1ccc(Cl)cc1[N+](=O)[O-]
37: CCOC(=O)C(O)(c1ccc(N=c2ccccn2C)cc1)C(F)(F)F (stereo not given)
38: Cc1nn(Cc2ccccc2)c(C)c1C=C1C(=O)NC(=S)NC1=O
39: Cc1nn(Cc2ccccc2)c(C)c1C(=O)OCC(=O)NCc1ccco1
40: C=CCn1c(O)c(C(C)=NC2CC2)c(=O)[nH]c1=O
Assay by compound	33	34	35	36	37	38	39	40
KCNQ2 pot	19*	0.07	0.35	0.69	0.34	0.36	0.25	0.06
KCNQ2 pot baseline	-2.8*	0.01	0.76	0.44	0.63	0.21	1.6	-0.05

41: Cc1cccc(-n2c(=S)[nH]c3ccccc3c2=O)n1
42: CN(C)C(=O)Oc1ccc2c(c1)O/C(=C\c1ccc(Cl)cc1)C2=O
43: COc1ccccc1OP(=O)(Nc1ccc(Br)cc1)Oc1ccccc1OC
44: CCc1c(C)nc(N)nc1N1N=C1SCC#N
45: Cc1ccc(N=Nc2c(O)[nH]c(=O)[nH]c2=O)c([N+](=O)[O-])c1
46: CCC(=O)OC1(Cc2ccc(CC)cc2)CC(C)N(C)CC1C (stereo not given)
47: CC(C)c1ccccc1NC1=NCCCS1
48: O=c1[nH]c(CN2CCNCC2)nc2ccccc12
Assay by compound	41	42	43	44	45	46	47	48
KCNQ2 pot	0.03	0.17	0.03	2.5	1.7	1.3	0.75	0.16
KCNQ2 pot baseline	0	0.74	-0.11	-0.27	-1.4	-0.92	0.12	0.18

49: COC(=O)C1=C(c2ccc(S(C)(=O)=O)cc2)C[C@@H]2CC[C@H]1N2C(=O)NCc1cccc2ccccc12
50: O=S(=O)(c1ccccc1)N1CCCCC1c1cccnc1 (stereo not given)
51: Cc1ccc(S(=O)(=O)N(C)C/N=C(\N)N[N+](=O)[O-])cc1
52: CCC(=NCc1cc(OC)cc(OC)c1)c1c(O)[nH]c(=O)[nH]c1=O
53: COCCCN1Cc2ccccc2C1=N
54: O=C(Nc1ccccc1)N1CCC2(CC1)OCCO2
55: O=C1NC(=S)N(c2ccc(Cl)cc2)C(=O)/C1=C/N1CCN(C(=O)c2ccco2)CC1
56: CC(=O)OC(C)(C)/C=C/C(=O)C(C)(O)C1[C@H](O)C[C@@]2(C)C3CC=C4C(CC[C@@H](O)C4(C)C)[C@]3(CO)C(=O)C[C@]12C (stereo not given in full)
Assay by compound	49	50	51	52	53	54	55	56
KCNQ2 pot	0.04	0.1	0.1	0.7	1.6	0.03	0.16	7.1*
KCNQ2 pot baseline	-2	1.3	-0.88	2.8	-0.13	0.98	-0.91	1.7*

57: O=C(Cn1ncc2ccsc2c1=O)N1CCC2(CC1)OCCO2
58: CC(=O)OC1C2CCC1C(N1CCCC1)CC2 (stereo not given)
59: CCNc1cc(N2CCNCC2)ccc1[N+](=O)[O-]
60: CCOC(=O)C(=CNc1ccc(C(O)(C(=O)OCC)C(F)(F)F)cc1C)C(=O)OCC (stereo not given)
61: Cc1cc(NC(=O)C(Cl)(Cl)Cl)no1
62: CC1(C)CN=C(NCc2ccccc2)S1
63: COC(=O)C(O)(c1ccc(NC(=O)NC2CCCCC2)cc1)C(F)(F)F (stereo not given)
64: CCc1c(C)nc(N)nc1N1N=C1SCCOc1ccccc1
Assay by compound	57	58	59	60	61	62	63	64
KCNQ2 pot	0.77	0.19	0.19	1.9	1.2	0.46	0.7	4.5
KCNQ2 pot baseline	-0.41	-0.02	0.2	0.17	-1.2	0.99	-0.78	-0.42

A different layout for two compounds above.
58: CC(=O)OC1C2CCC1C(N1CCCC1)CC2 (stereo not given)
  KCNQ2 pot = 0.19	KCNQ2 pot baseline = -0.02

59: CCNc1cc(N2CCNCC2)ccc1[N+](=O)[O-]
  KCNQ2 pot = 0.19	KCNQ2 pot baseline = 0.2

In a second layout: entries from further up.
(61) Cc1cc(NC(=O)C(Cl)(Cl)Cl)no1
  KCNQ2 pot = 1.2
  KCNQ2 pot baseline = -1.2
(62) CC1(C)CN=C(NCc2ccccc2)S1
  KCNQ2 pot = 0.46
  KCNQ2 pot baseline = 0.99
(63) COC(=O)C(O)(c1ccc(NC(=O)NC2CCCCC2)cc1)C(F)(F)F (stereo not given)
  KCNQ2 pot = 0.7
  KCNQ2 pot baseline = -0.78
(64) CCc1c(C)nc(N)nc1N1N=C1SCCOc1ccccc1
  KCNQ2 pot = 4.5
  KCNQ2 pot baseline = -0.42

Continuation:
65: CCCCn1c(O)c(C=NCCN2CCCCC2)c(=O)[nH]c1=O
66: O=C(Nc1cccc(C(F)(F)F)c1)OC1CN2CCC1CC2 (stereo not given)
67: N#CC1=C(N)Oc2c(c(=O)oc3ccccc23)C1c1ccc([N+](=O)[O-])o1 (stereo not given)
68: CCOC(=O)C1(CCCc2ccccc2)CCN(C2CCCC2)CC1
69: Cc1ccc(S(=O)(=O)N2CN3CCN(C3)C2)cc1
70: COc1ccc(OC)c(-n2c(O)c(C=Nc3c(C)n(C)n(-c4ccccc4)c3=O)c(=O)[nH]c2=O)c1
71: COc1cc(C(O)CNC(C)C)cc(F)c1OC (stereo not given)
72: CN1CCc2nc(N)c(C#N)c(-c3ccccc3)c2C1
Assay by compound	65	66	67	68	69	70	71	72
KCNQ2 pot	0.71	1.5	0.17	0.33	0.27	1.6	0.07	0.67
KCNQ2 pot baseline	-2.1	1.5	-0.77	1.6	0.44	0.02	0.05	0.47

73: N=c1sccn1Cc1ccccc1F
74: Cc1ccccc1CS(=O)(=O)Cc1ccc(C(=O)N2CCC3(CC2)OCCO3)o1
75: COC(=O)COc1cc(C)cc2oc(=O)c3c(c12)CCCC3
76: CCc1ccccc1NC(=O)CSc1nnc([C@@H](N)Cc2c[nH]c3ccccc23)o1
77: c1ccc(C2CC3CC(c4ccco4)N2O3)cc1 (stereo not given)
78: Cn1cccc1CNCCc1ccccc1
79: CC/C(=N\NC(=O)c1ccccc1O)c1c(O)n(Cc2ccccc2)c(=O)[nH]c1=O
80: CN(c1ccc(OCC(=O)N2CCN(C/C=C/c3ccccc3)CC2)cc1)S(=O)(=O)c1cccs1
Assay by compound	73	74	75	76	77	78	79	80
KCNQ2 pot	1.2	0.47	0.77	2.2	0.02	0.63	2.6	0.33
KCNQ2 pot baseline	0.44	2	-1.3	-0.21	-1.2	1.3	0	1.9

81: O=[N+]([O-])NC1=NCCN1Cc1ccc(Cl)nc1
82: COc1ccc(-n2c(O)c(C(C)=NCc3ccc4c(c3)OCO4)c(=O)[nH]c2=O)cc1
83: CCCC12CN3CCN(C1)CC(CCC)(C3)C2=O
84: C=CCSc1nc2c(c(-c3ccsc3)c1C#N)CN(C)CC2
85: CCOc1nc(NC(C)C)nc(N2CC3CC(C2)c2cccc(=O)n2C3)n1 (stereo not given)
86: CCCCN=C[C@]12CCC(O)CC1(O)CCC1[C@@H]2CC[C@]2(C)[C@H](C3C=CC(=O)O3)CCC12O (stereo not given in full)
87: CC1CN=C(NCc2ccc(F)cc2)S1 (stereo not given)
88: CC1=C(/C=C/c2ccccc2)CCN(C)C1
Assay by compound	81	82	83	84	85	86	87	88
KCNQ2 pot	1.4	2.9	2.5	0.21	0.88	0.78	0.74	1.1
KCNQ2 pot baseline	0.01	-1.6	-0.32	-0.02	0.2	0.54	-0.15	-0.65

89: NC(=O)Nc1cccc(C(F)(F)F)c1
90: C#CCN1CCN(c2cccc(C(F)(F)F)c2)CC1
91: Cc1cccc(-n2c(O)c(C=NCCN3CCCCC3)c(=O)[nH]c2=O)c1
92: CS(=O)(=O)NCc1nnc2n1-c1ccc(Cl)cc1C(c1ccccc1)=NC2
93: O=c1[nH]c(=S)[nH]c(O)c1C(c1ccccn1)c1c(O)[nH]c(=S)[nH]c1=O
94: N=c1c[n+](CC23CC4CC(CC(C4)C2)C3)[n-]o1
95: CCN1CCN(Cc2ccc(OC(F)(F)F)cc2)CC1
96: O=c1c2ccccc2nc(Cc2ccccc2)n1-c1ccccc1O
97: c1cc2n(c1)-c1c(ccc3c1OCO3)CNC2c1ccc2c(c1)OCO2 (stereo not given)
98: CCOC(=O)c1nc2ccccc2c(=O)n1-c1ccc(C)cc1
Assay by compound	89	90	91	92	93	94	95	96	97	98
KCNQ2 pot	0.01	0.07	0.95	0.01	0.07	0.52	0.1	0.09	0.06	0.49
KCNQ2 pot baseline	1.9	-0.06	-0.12	0.14	0.36	0.75	-1	-0.37	0.33	-3.9

A portion of the library (hit frequency here may not be typical).
